# Assay outcomes (PubChem)
# TAR Tat displ = TAR RNA-Tat peptide displacers, HIV-1, primary screen, biochemical, FRET, FAM/TAMRA-labeled Tat | AID 1259389, 2018 | HIV-1 TAR RNA, Tat peptide displacement FRET; active compounds read high | z-score (test concentration not listed) | actives 0.6% (n = 100,000);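 also: score is relative to mean and SD of negative controls; some compounds called inactive have numbers as strong as hits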
# CDC25B CDK2 inh = primary biochemical HTRF screen for blockers of M-phase inducer phosphatase 2 binding to CDK2/cyclin A. AID 1259370, 2018. z-score (no concentration beside the values). actives 0.72% (n = 94,000). HTRF CDC25B-CDK2/CyclinA binding, anti-His/anti-Flag; active compounds read high;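 also: score is relative to mean and SD of negative controls; strong numbers were not always called active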
# * = called active by the depositor; nt = not tested or not shown.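 The calls were made as follows: active = z-score from 3 up in half or more of its runs; inactive = the rest.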
SMILES,TAR Tat displ,CDC25B CDK2 inh
Cc1ccc(OCCSc2nc(C)cc(=O)[nH]2)cc1,0.75,0.45
O=C(CCS(=O)(=O)c1ccc2c(c1)CCN2C(=O)C1CC1)N1CCN(c2ccc(F)cc2)CC1,1.1,nt
Cc1cc2c(cc1S(=O)(=O)N1CCCC1)n(C)c(=O)c(=O)n2C,0.26,nt
COc1ccc(Cc2nc3c4c(C)c(C)n(-c5ccc(OC)cc5)c4ncn3n2)cc1,1.1,-2.4
O=C(Cn1c(=O)oc2cc(S(=O)(=O)N3CCCC3)ccc21)N1CCN(c2ccccc2)CC1,nt,-3.6
c1ccc(CCN2CN(Cc3cccnc3)Cn3c2nc2ccccc23)cc1,0.78,-0.45
c1ccc(CN2CCC(Nc3nc4ccccc4c4nc(-c5cccnc5)nn34)CC2)cc1,-1.2,-0.72
Cc1nnc2sc(SCC(=O)c3ccc(Br)cc3)nn2c1=O,-0.4,nt
CCn1cnc2cc(NCc3cccc(Br)c3)ccc21,0.37,13*
Cn1c(=O)c2c(SCC(=O)N3CCCc4ccccc43)nc(-c3ccccc3F)nc2n(C)c1=O,0,nt
Clc1ccc2oc(-c3csc(-c4ccccc4)n3)cc2c1,nt,-0.66
O=C(NCC1CCCO1)c1cc(-c2ccncc2)nc2ccc(S(=O)(=O)N3CCOCC3)cc12 (centres undefined),1.4,nt
Cc1nn(Cc2ccc(Cl)cc2)c(C)c1NC(=O)c1noc(C(C)C)c1[N+](=O)[O-],-0.02,-1.7
CN(C)c1nc(NCc2ccccc2)nc(Oc2ccc(=O)[nH]n2)n1,3,-0.44
O=C1N/C(=N/N=C\c2[nH]ncc2Br)SC1c1ccccc1 (centres undefined),nt,-0.62
Cc1ccc(S(=O)(=O)n2nccc2-c2c(C)nc3ccccn23)cc1,nt,-1.9
O=C(CN1C(=O)c2cccnc2Oc2ccccc21)NCCN1CCOCC1,0.35,nt
CC(C)C1=NN(S(=O)(=O)c2ccccc2)C(O)(C(F)(F)F)C1 (centres undefined),nt,-0.21
O=C(CSc1nccn1Cc1ccc(Cl)cc1)NC1CCCC1,1.2,nt
O=S(=O)(c1cccc(-c2cn3ccccc3n2)c1)N1CCCCC1,0.64,-0.41
Cc1cc(C)cc(NC(=O)N2CCN(c3cc(N(C)C)nc(C)n3)CC2)c1,0.07,1.2
O=C(CCS(=O)(=O)c1cc2c(cc1Cl)NC(=O)CO2)Nc1ccc(Cl)cc1,2.9,nt
CSc1ccc(CCNC(=O)CCc2nnc3ccc(N4CCOCC4)nn23)cc1,-0.03,nt
Cc1nnc2c3ccccc3nc(Nc3ccccc3Br)n12,0.53,nt
O=C(O)c1cc(Cl)ccc1NS(=O)(=O)c1ccc(Cl)cc1,1.6,-0.91
CCOC(=O)C1=C(O)/C(=C\c2ccc(CNC(=O)C(=O)Nc3ccccc3)o2)N=C1C,nt,1.1
N#Cc1c(Br)cnn1Cc1cccc(Cl)c1,nt,0.11
CCc1cc2c3c([nH]c2cc1S(=O)(=O)Nc1ccc2c(c1)OCCO2)CCCC3=O,1.6,nt
CC(=O)Nc1c2n(c3ccc(F)cc13)CC(C)(C(=O)NC1CCCC1)N(C1CCCC(C)C1C)C2=O (centres undefined),1.8,nt
O=C(Cn1nnc(-c2cc(Cl)cc(Cl)c2)n1)c1ccc(Cl)cc1,nt,0.74
CCCCc1nc(SCC(=O)N(C)c2ccccc2)c2c(=O)n(C)c(=O)n(C)c2n1,-0.43,nt
CCC12CN3CC(CC)(CN(C1)C3c1cccc(N)c1)C2=O (centres undefined),-0.27,-0.44
CCOC(=O)C1CCN(C(=O)c2ccc(Oc3cc(Cl)cc(Cl)c3)o2)CC1,nt,-0.06
O=C(NCc1cccs1)C(=O)NCC(c1ccc2c(c1)OCO2)N1CCOCC1 (centres undefined),1.5,nt
COc1ccc2nc(SCC(=O)N3CCN(S(=O)(=O)c4ccccc4)C3)[nH]c2c1,-0.98,-0.64
CSc1nsc(SC)c1C(=O)Oc1ccccc1N1CCOCC1,nt,0.67
CC(=O)N1CCc2cc(S(=O)(=O)NC(CC(C)C)C(=O)N3CC(C)CC(C)C3)ccc21 (centres undefined),-0.66,-2.1
O=C(CCc1nc2sc3c(c2c(=O)[nH]1)CCCC3)Nc1ccc(F)cc1,0.74,nt
C=CCn1c(=O)oc2ccc(C(=O)NCc3ccccc3)cc21,0.8,nt
O=S(=O)(c1ccc(-c2ccn[nH]2)s1)N1CCc2ccccc2C1,0.65,nt
COc1ccc(OC)c(CN(C)CCc2ccccn2)c1,-0.03,-0.42
Cc1cc(NC(=O)c2ccc3nonc3c2)no1,nt,-2
Cc1n[nH]c(=O)c2c(N)n(-c3ccccc3)nc12,-0.09,-0.09
Nc1ccc(F)c(-c2nnc(-c3ccccc3)o2)c1,33*,nt
Cc1ccc(Cn2c(CO)cnc2SCc2ccccc2C)cc1,1.3,nt
CSc1nnc(SCC(=O)c2ccc3c(c2)OCCO3)s1,nt,-0.94
CCOC(=O)CCS(=O)(=O)c1nc(-c2ccccc2)cc(C(F)(F)F)n1,0.31,0.87
COc1cccc(C2C(C(=O)OCC3CCCO3)=C(C)NC3=C2C(=O)CCC3)c1OC (centres undefined),0.27,-2.3
Cc1cc(C)cc(NC(=O)CSc2nc(-c3ccccc3)nc3cc(=O)[nH]n23)c1,0.65,nt
CC(=O)Nc1sc2c(c1C(=O)O)CCCC2,0.7,-0.82
O=C(Nc1nonc1-c1ccc(Cl)cc1)c1ccccc1Br,0.8,-0.88
COc1cccc(-c2nc(-c3ccc(Cl)cc3)no2)c1OC,0.25,-1.4
C=CCNC(=O)COCc1cc(-c2ccc3c(c2)OCO3)on1,0.72,nt
O=C(Nc1ccccc1)c1nc2ccccc2n2cnnc12,1.4,-1.7
O=C(O)C1CCCc2c1[nH]c1ccccc21 (centres undefined),-1.5,3.5
CC1(C)CC(=O)C2=C(C1)Nc1[nH]c(=S)[nH]c(=O)c1C2c1ccc(Br)cc1 (centres undefined),nt,1.1
CCOC(=O)C1=C(c2ccccc2)NC(SCC(=O)OC)=C(C#N)C1c1ccccc1F (centres undefined),1.9,-0.84
Cc1c(C(=O)NC2CCC(C)CC2)sc2nc3n(c(=O)c12)CCCC3 (centres undefined),0.59,nt
COc1ccc(N2C(=O)CC(NC3CCCC3)C2=O)cc1 (centres undefined),-0.38,1
Cc1cc(C)c(C#N)c(SCS(=O)c2ccc(C(C)(C)C)cc2)n1 (centres undefined),-0.59,-0.22

# Sorted by formula weight (high to low): part of the list above.
SMILES,TAR Tat displ,CDC25B CDK2 inh
CCOC(=O)C1=C(c2ccccc2)NC(SCC(=O)OC)=C(C#N)C1c1ccccc1F (centres undefined),1.9,-0.84
COc1cccc(C2C(C(=O)OCC3CCCO3)=C(C)NC3=C2C(=O)CCC3)c1OC (centres undefined),0.27,-2.3
Cc1cc(C)cc(NC(=O)CSc2nc(-c3ccccc3)nc3cc(=O)[nH]n23)c1,0.65,nt
CCOC(=O)CCS(=O)(=O)c1nc(-c2ccccc2)cc(C(F)(F)F)n1,0.31,0.87
O=C(Nc1nonc1-c1ccc(Cl)cc1)c1ccccc1Br,0.8,-0.88
Cc1cc(C)c(C#N)c(SCS(=O)c2ccc(C(C)(C)C)cc2)n1 (centres undefined),-0.59,-0.22
CSc1nnc(SCC(=O)c2ccc3c(c2)OCCO3)s1,nt,-0.94
COc1cccc(-c2nc(-c3ccc(Cl)cc3)no2)c1OC,0.25,-1.4
C=CCNC(=O)COCc1cc(-c2ccc3c(c2)OCO3)on1,0.72,nt
O=C(Nc1ccccc1)c1nc2ccccc2n2cnnc12,1.4,-1.7
COc1ccc(N2C(=O)CC(NC3CCCC3)C2=O)cc1 (centres undefined),-0.38,1
Nc1ccc(F)c(-c2nnc(-c3ccccc3)o2)c1,33*,nt
CC(=O)Nc1sc2c(c1C(=O)O)CCCC2,0.7,-0.82
O=C(O)C1CCCc2c1[nH]c1ccccc21 (centres undefined),-1.5,3.5

# (more compounds)
SMILES,TAR Tat displ,CDC25B CDK2 inh
Cn1c(=O)n(C)c2cc(N3CCCCC3)c(NC(=O)C(C)(C)C)cc21,0.33,-1.6
Cc1[nH]c2ccccc2c1C1(O)C(=O)N(Cc2cccc3ccccc23)c2ccccc21 (centres undefined),2.4,-0.4
Cc1[nH]c2ccccc2c1C1(O)C(=O)N(CCc2ccccc2)c2ccc(Cl)cc21 (centres undefined),-0.03,-1.1
C/C(=N\OCC(=O)N=Nc1c(O)n(CN2CCN(C)CC2)c2ccccc12)c1cccs1,nt,-1.1
O=C(N/N=C/c1cn(-c2ccccc2)nc1-c1cccs1)c1cccs1,nt,0.32
COc1c(S(=O)(=O)c2ccc(C)c(F)c2)cnc2ccc(Cl)cc12,0.63,-1.1
CC1(C)CC(=O)c2cc(C#N)c(SCc3ccc(Cl)cc3)nc2C1,nt,-3.1
COC(=O)c1ccc2ncccc2c1,0.9,-0.51
CSc1cccc(NC(=O)CC(=O)Nc2ccc3nc4n(c(=O)c3c2)CCCCC4)c1,0.96,-0.29
COc1ccc(S(=O)(=O)n2nc(C)c(S(=O)(=O)N(C)c3ccccc3)c2C)cc1,0.59,nt
N#Cc1ccc(-c2cccs2)nc1SCC(=O)c1cc2ccccc2oc1=O,nt,-0.75
CCn1c(C(=O)N2CCC(C(=O)N3CCN(C)CC3)CC2)cc2sccc21,-1.6,-1.4
O=c1[nH]c(CS(=O)(=O)c2ccccc2)nc2ccccc12,0.48,0.1
C=CCN=c1scc(-c2ccc(Cl)cc2)n1NC(=O)Nc1ccccc1,nt,0.95
CCOC(=O)c1ccc(Nc2nnc(C(C)(C)C)c(=O)[nH]2)cc1,nt,1.1
CN(C)CCCNc1oc(/C=C/c2cccs2)nc1C#N,1.3,-0.43
CC(=O)N1c2ccccc2NC2=C(C(=O)CC(c3ccc(C(C)(C)C)cc3)C2)C1c1cccnc1 (centres undefined),-0.49,0.71
COc1ccc(OC)c(NS(=O)(=O)c2c(C)nc3sc4ccccc4n3c2=O)c1,0.84,nt
O=C(Cn1nc2c(=O)n(-c3cccc(F)c3)ccn2c1=O)c1ccccc1,0.45,nt
O=c1ccc(-c2ccc(S(=O)(=O)N3CCOCC3)o2)n[nH]1,2.2,nt
Cc1nn(Cc2nnc(-c3ccccc3Cl)o2)c(C)c1Br,nt,1.9
Cc1ccc(C(c2ccc(C)o2)c2ccc(C)o2)cc1,-3.1,-0.13
Cc1cc(=O)n(Cc2cc(=O)n3ccccc3n2)c2c1c(C)nn2C,1.6,nt
CCOC(=O)c1[nH]c(C)c(C(=O)Nc2cc(F)ccc2F)c1C,nt,-0.07
CCOC(=O)CC(=O)CSc1nc2nc(C)cc(C)n2n1,0.86,-0.84
OC(CN1CCCN(Cc2ccc(F)cc2)CC1)C(F)(F)F (centres undefined),nt,-1.8
CN(C)c1ccc(Nc2nc(-c3cccs3)cs2)cc1,0.26,-0.39
COc1ccccc1-c1noc2ncnc(N(Cc3ccco3)CC3CCCO3)c12 (centres undefined),0.64,nt
COc1cc(C2C(C#N)=C(N)OC3=C2C(=O)CC(c2ccco2)C3)cc(OC)c1OC (centres undefined),nt,4
CC1CCCC(NS(=O)(=O)c2cc(Br)cnc2N)C1C (centres undefined),2.7,-1.5
O=C(C(=O)N1CCN(c2ccccc2F)CC1)c1c[nH]c2ccccc12,0.97,-1.4
CCOC(=O)c1c(C)oc2ncnc(N3CCN(C4CCCCC4)CC3)c12,-0.44,nt
N#CC(C#N)=Cc1ccccc1OCc1ccccc1,nt,-2
Cc1nc(C)c(CCNS(=O)(=O)c2ccccc2F)s1,0.34,nt
COc1ccc(OC)c(Nc2nc(-c3ccccc3F)no2)c1,1.1,nt
CC(C)Cn1cc(NC(=O)N2CCCC(C)C2)c2ccccc2c1=O (centres undefined),-0.12,nt
COc1cccc(C(Nc2ccccn2)c2ccc3ccc(C)nc3c2O)c1OC (centres undefined),-0.54,-0.78
O=C(c1cn(-c2cccc(Cl)c2)nn1)N1CCSCC1,3,nt
O=C(NCc1ccc2c(c1)OCO2)C(C(=O)c1ccc(F)cc1)n1ccccc1=O (centres undefined),-0.79,0.51
COC(=O)c1cc(NC(=O)c2sc3cc(C)ccc3c2Cl)cc(C(=O)OC)c1,nt,-4.8
COC1(C2=NCCN2)COc2ccccc2O1 (centres undefined),nt,-0.65
Cc1c(C(=O)N2CCCC2)oc2c1-c1nn(CC(=O)NCc3ccc4c(c3)OCO4)cc1CC2,-0.52,nt
COc1ccc(Nc2ncnc3c2nnn3Cc2ccccc2Cl)c(OC)c1,nt,-1.6
Cc1ccc(C2CC(=O)C3=C(C2)Nc2ccccc2NC3c2cccc(C)c2)cc1 (centres undefined),nt,0.42
CCC(CO)NC(=O)c1nn(-c2ccc(Cl)cc2)nc1CO (centres undefined),0.65,-0.65
CCOC(=O)c1nc(NC(C)C)c2ccccc2n1,0.9,nt
Cc1cc(C)cc(-n2nnc(-c3nc(-c4ccccc4Cl)no3)c2N)c1,-0.32,nt
CC(C)NC(=O)C1CCN(c2nc3ncc([N+](=O)[O-])cc3o2)CC1,0.63,0.51
COc1ccc(C(Nc2ccccn2)c2c(O)ccc3ncccc23)cc1 (centres undefined),0.19,2.5
Cc1cccc(OCCSc2nc(-c3ccccc3)nc3cc(=O)[nH]n23)c1,0.36,nt
O=C(C1CCCN(c2ncnc3c2nc2n3CCCCC2)C1)N1CCN(c2ccc(Cl)cc2)CC1 (centres undefined),-0.88,nt
CSc1nnc(SC)n1CCNC(=O)Nc1cccc(Cl)c1,nt,0.35
O=C(c1cc(-c2cccs2)on1)N1CCCc2ccccc21,2,-1.4
CCCc1nc(SC)ncc1C(=O)NCCC1=CCCCC1,-0.44,nt
CCCCCCSc1nnc2c(n1)OC(C)N(C(C)=O)c1ccccc1-2 (centres undefined),-0.51,-0.16
N#Cc1c(NC(=O)COCc2cc(-c3ccc4c(c3)OCO4)on2)sc2c1CCC2,0.19,nt
